High-throughput results as filed in PubChem BioAssay.
Beta2AR agonist = beta2AR agonists driving receptor internalization, primary screen, cell-based, FAP fluorogen, flow cytometry; Beta-2 adrenergic receptor (Homo sapiens), P07550; Am2.2-beta2AR cells; reference of the scale not given here; response, % (no concentration beside the values); hit rate 0.43% among 340,000; AID 504454, 2011;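 active = response above a set limit, near 3 SD of response in nonfluorescent compounds, cut at about 42% in these data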;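 also: stock transfer was 100 nL into about 11 µL; a reference agonist was the positive control; negative values mostly stem from fluorescent compounds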
Ecoli growth = E. coli growth inhibition, primary screen, OD600 | Escherichia coli growth, 23 h; stronger effect = lower value | AID 1053175, 2014 | OD600 absorbance (concentration not given with the values) | hit rate 0.21% among 330,000;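 active = OD600 absorbance below the run mean of sample wells minus 3.6 SD, in any replicate, cut at about 0.56 in these data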;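 also: stock transfer was 300 nL into about 60 µL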
UCH37 inh = inhibitors of human UCH37 deubiquitinase, primary screen, biochemical, Ub-AMC cleavage, fluorescence. AID 588478, 2011. Ubiquitin carboxyl-terminal hydrolase isozyme L5 (Homo sapiens), Q9Y5K5. purified proteasome/UCH37. inhibition, % (no concentration beside the values). hit rate 0.33% among 330,000;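 active = mean of two replicates above 20%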;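 also: 0% = compound-free wells with enzyme and 100% = wells lacking proteasome; stock transfer was 100 nL into about 20 µL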
Target sequence (Q9Y5K5 whole entry, looked up): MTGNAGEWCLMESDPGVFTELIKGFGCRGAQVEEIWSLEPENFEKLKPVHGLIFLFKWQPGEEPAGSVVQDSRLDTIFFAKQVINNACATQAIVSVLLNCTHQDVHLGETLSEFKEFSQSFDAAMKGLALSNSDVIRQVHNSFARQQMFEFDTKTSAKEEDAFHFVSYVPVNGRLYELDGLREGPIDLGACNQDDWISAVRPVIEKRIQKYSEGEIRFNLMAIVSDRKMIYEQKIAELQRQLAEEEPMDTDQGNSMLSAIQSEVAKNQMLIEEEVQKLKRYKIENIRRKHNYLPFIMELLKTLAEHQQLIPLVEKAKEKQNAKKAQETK
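Material: Human UCH37 enzyme supplied as purified proteasome complex | Schedule: 30 min compound-proteasome preincubation then 25 min substrate reaction, room temperature | Detection: AMC fluorescence from Ub-AMC cleavage, excitation 355 nm, emission 460 nm | Benchmarks: Wells without proteasome as full block, compound-free enzyme plus substrate as uninhibited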
ALR H2O2 inh = inhibitors of human ALR sulfhydryl oxidase, primary screen, biochemical, H2O2 detection, HRP-luminol luminescence, single point; AID 485317, 2010; hit rate 3.8% among 290,000; purified ALR, DTT oxidation; inhibition, % (concentration not given with the values);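 active = mean and each replicate at 75% or more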;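 also: stock transfer was 7.5 nL into about 7.5 µL; 0% = neutral wells and 100% = wells with inactivated enzyme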
Target sequence (P55789 whole entry, looked up): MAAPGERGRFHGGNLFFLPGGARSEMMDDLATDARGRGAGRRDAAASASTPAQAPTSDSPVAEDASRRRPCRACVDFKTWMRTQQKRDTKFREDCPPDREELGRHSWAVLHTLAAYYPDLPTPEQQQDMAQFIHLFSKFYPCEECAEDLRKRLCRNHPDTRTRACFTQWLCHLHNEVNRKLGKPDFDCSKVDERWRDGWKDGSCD
HNF4A DNA FP = change in binding of human HNF4A to DNA, primary screen, biochemical, fluorescence polarization, FITC-DNA | activity change, % at 10 µM | 1 h | hit rate 0.3% among 360,000; in the data active = activity change above about 30%, passing the limit was not always enough;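 also: controls were the assay level and a saturating level of protein; the project sought stronger binding though the title names inhibitors; some compounds called inactive have numbers as strong as hits; positive values seem to mean higher polarization but the record does not say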
FGF22 binding = binders of human FGF22 protein, primary screen, FGF22 synaptogenesis inhibitor project, biophysical, thermal shift, single point; calls only at 9.99 µM; recombinant FGF22 thermal shift, SYPRO orange fluorescence; percent of sucrose octasulfate shift, DMSO zero; Fibroblast growth factor 22 (Homo sapiens), Q9HCT0; hit rate 1.5% among 340,000;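 active = melting point raised past a set limit in the mean and every replicate; three in four hits are not shown here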
Target sequence (Q9HCT0 whole entry, looked up): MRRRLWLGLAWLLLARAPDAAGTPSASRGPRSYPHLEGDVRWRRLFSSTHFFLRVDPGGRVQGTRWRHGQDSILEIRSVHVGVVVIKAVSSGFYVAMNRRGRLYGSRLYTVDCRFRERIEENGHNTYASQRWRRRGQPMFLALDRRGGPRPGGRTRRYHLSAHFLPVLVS
LANA-H2B inh = blockers of LANA interaction with H2A/H2B – biochemical, FP readout, HTS, primary screen | AID 2629, 2010 | Protein LANA1 (Human herpesvirus 8 type P (isolate GK18)), Q9QR71 | cell-free LANA-H2A/H2B peptide, fluorescence polarization | inhibition, % (test concentration not listed) | hit rate 0.6% among 320,000; in the data active = inhibition mostly above about 10%, no sharp cut-off; inactive = mostly below about 6.7%;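 also: stock transfer was 7.5 nL into about 10 µL; 0% = median of vehicle wells and 100% = median of positive control wells; one replicate is shown; the record names a cut of 25% in any replicate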
* marks the source's active call; other numbers are inactive results. The list is partial; rates above refer to the full screens.

For COc1ccc(CC(=O)NC(C)CCc2ccccc2)cc1OC (centres undefined) the results were Beta2AR agonist -6, Ecoli growth 0.7, UCH37 inh -1.4, ALR H2O2 inh 35, HNF4A DNA FP 3.8, FGF22 binding inactive and LANA-H2B inh 1.8.
For N#CC1=C(N)Oc2n[nH]c(-c3cccs3)c2C1C1CCCCC1 (centres undefined) the results were Beta2AR agonist 10, Ecoli growth 0.73, UCH37 inh 1.9, ALR H2O2 inh 7, HNF4A DNA FP 0.3 and LANA-H2B inh -3.9.
`Cc1cc(C(=O)NC2CCCc3c2cnn3-c2ccc(C(C)(C)C)cc2)nn1C` (centres undefined) gave Beta2AR agonist 8, Ecoli growth 0.69, UCH37 inh 0.6, ALR H2O2 inh -6, HNF4A DNA FP 1.4, FGF22 binding inactive and LANA-H2B inh -9.6.
For CC(=O)NC(CC(=O)N1CCCC1)c1ccccc1 (centres undefined) the results were Beta2AR agonist 3, Ecoli growth 0.74, UCH37 inh 1.0, ALR H2O2 inh 4, HNF4A DNA FP 0.8, FGF22 binding inactive and LANA-H2B inh 1.6.
For CSc1cccc(N2CC(C(=O)N3CCN(S(=O)(=O)c4ccccc4Cl)CC3)CC2=O)c1 (centres undefined) the results were Beta2AR agonist 2, Ecoli growth 0.67, UCH37 inh 0.7, ALR H2O2 inh 3, HNF4A DNA FP -3.0, FGF22 binding inactive and LANA-H2B inh -5.8.
`Cc1cccc(/C=N/n2c(C)cc(C)c(C#N)c2=O)c1` gave Beta2AR agonist -14, ALR H2O2 inh -6, HNF4A DNA FP 0.9 and LANA-H2B inh -2.8.
For O=C(CSc1ccccc1Cl)N1CCOCC1 the results were Beta2AR agonist -19, Ecoli growth 0.67, UCH37 inh -0.1, ALR H2O2 inh 5, HNF4A DNA FP -2.4, FGF22 binding inactive and LANA-H2B inh -4.0.
O=c1[nH]c2cc3c(cc2cc1CN(Cc1cccnc1)C(=S)NCc1ccco1)OCO3 was read as Beta2AR agonist -7, Ecoli growth 0.68, UCH37 inh -131, ALR H2O2 inh -2, HNF4A DNA FP -1.0 and LANA-H2B inh -2.8.
For COCCCNC(=O)C1CCN(c2ncccn2)CC1 the results were Beta2AR agonist -7, Ecoli growth 0.72, UCH37 inh -7.7, ALR H2O2 inh -6, HNF4A DNA FP 2.8 and LANA-H2B inh 3.7.
`C/C(=N\Nc1nc(C)cc(-c2ccccc2)n1)c1ccc(O)cc1` gave Beta2AR agonist 9, ALR H2O2 inh 96*, HNF4A DNA FP 1.1, FGF22 binding inactive and LANA-H2B inh 2.2.
Cc1cc([N+](=O)[O-])ccc1NC(=O)/C=C/c1cccs1 was read as Beta2AR agonist -10, UCH37 inh 1.2, ALR H2O2 inh 1, HNF4A DNA FP 0.4 and LANA-H2B inh -5.1.
Screening CCCCC(C)Sc1nc2c([nH]1)c(=S)n(C)c(=O)n2C (centres undefined) returned Beta2AR agonist -2, HNF4A DNA FP 0.5 and FGF22 binding inactive.
For CCC(=O)OCC(=O)Nc1cc([N+](=O)[O-])ccc1OC the results were Beta2AR agonist -1, Ecoli growth 0.71, UCH37 inh 9.5, ALR H2O2 inh 4, HNF4A DNA FP 0.8, FGF22 binding inactive and LANA-H2B inh -2.6.
COC(=O)c1ccc(NC(=O)Cn2nc(C)c3ccccc3c2=O)cc1 was read as Beta2AR agonist -1, Ecoli growth 0.62, UCH37 inh 6.2, ALR H2O2 inh -2, HNF4A DNA FP 11, FGF22 binding inactive and LANA-H2B inh -0.1.
COc1ccc(OC)c(CNC(=O)CCSCc2ccc(F)cc2Cl)c1 was read as Beta2AR agonist 3, Ecoli growth 0.64, UCH37 inh 4.1, ALR H2O2 inh -4, HNF4A DNA FP 0.3, FGF22 binding inactive and LANA-H2B inh -4.8.

Two compounds picked at random from those above:
For CCC(=O)OCC(=O)Nc1cc([N+](=O)[O-])ccc1OC the results were Beta2AR agonist -1, Ecoli growth 0.71, UCH37 inh 9.5, ALR H2O2 inh 4, HNF4A DNA FP 0.8, FGF22 binding inactive and LANA-H2B inh -2.6.
For CC(=O)NC(CC(=O)N1CCCC1)c1ccccc1 (centres undefined) the results were Beta2AR agonist 3, Ecoli growth 0.74, UCH37 inh 1.0, ALR H2O2 inh 4, HNF4A DNA FP 0.8, FGF22 binding inactive and LANA-H2B inh 1.6.

The main list resumes with the 2 entries that preceded the break.
COC(=O)c1ccc(NC(=O)Cn2nc(C)c3ccccc3c2=O)cc1 was read as Beta2AR agonist -1, Ecoli growth 0.62, UCH37 inh 6.2, ALR H2O2 inh -2, HNF4A DNA FP 11, FGF22 binding inactive and LANA-H2B inh -0.1.
COc1ccc(OC)c(CNC(=O)CCSCc2ccc(F)cc2Cl)c1 was read as Beta2AR agonist 3, Ecoli growth 0.64, UCH37 inh 4.1, ALR H2O2 inh -4, HNF4A DNA FP 0.3, FGF22 binding inactive and LANA-H2B inh -4.8.
Screening CCCCOC(=O)c1cccc(NC(=O)CC)c1 returned Beta2AR agonist -3, Ecoli growth 0.69, UCH37 inh 2.6, ALR H2O2 inh -2, HNF4A DNA FP -3.7 and LANA-H2B inh 1.5.
For COc1ccc(CCNS(=O)(=O)c2ccc3c(c2)NC(=O)C(C)S3)cc1OC (centres undefined) the results were Beta2AR agonist 10, Ecoli growth 0.64, UCH37 inh 5.3, ALR H2O2 inh -12, HNF4A DNA FP -0.1, FGF22 binding inactive and LANA-H2B inh 2.9.
Screening Cc1ccccc1NC(=O)CN1C(=O)NC2(CCCCC2)C1=O returned Beta2AR agonist -1, Ecoli growth 0.78, UCH37 inh 1.2, ALR H2O2 inh -4, HNF4A DNA FP 2.7 and LANA-H2B inh 1.8.
For O=C1c2ccsc2SCCN1Cc1ccc(Cl)cc1Cl the results were Beta2AR agonist -7, Ecoli growth 0.7, UCH37 inh 2.6 and HNF4A DNA FP -0.8.
`CN(c1ccccc1)S(=O)(=O)c1cccc(C(=O)N2CCN(c3ccccn3)CC2)c1` gave Beta2AR agonist -9, Ecoli growth 0.74, UCH37 inh -1.1, ALR H2O2 inh -2, HNF4A DNA FP 1.2 and LANA-H2B inh -2.7.
Screening CN(Cc1ccccc1)C(=O)CCNC(=O)Cn1cnc2ccccc2c1=O returned Beta2AR agonist -8, Ecoli growth 0.75, UCH37 inh -1.2, ALR H2O2 inh 0, HNF4A DNA FP 0.3 and LANA-H2B inh -4.7.
For CC(O)(CS(=O)(=O)Cc1ccccc1)c1ccccc1Cl (centres undefined) the results were Beta2AR agonist -1, Ecoli growth 0.69, UCH37 inh 4.2, ALR H2O2 inh -10, HNF4A DNA FP -3.9, FGF22 binding inactive and LANA-H2B inh -0.5.
Screening O=C(CCC1CCCC1)NNC(=O)c1ccccc1O returned Beta2AR agonist -3, Ecoli growth 0.66, UCH37 inh -12, ALR H2O2 inh -5, HNF4A DNA FP -1.0, FGF22 binding inactive and LANA-H2B inh 6.0.
For Cc1ccc(-c2noc(=O)n2CC(=O)Nc2ccc(S(=O)(=O)NC3CC3)cc2)cc1 the results were Beta2AR agonist 10, Ecoli growth 0.69, UCH37 inh 1.4, ALR H2O2 inh -6, HNF4A DNA FP 2.3, FGF22 binding inactive and LANA-H2B inh -1.2.
Screening Cc1cccc(N2CCN(S(=O)(=O)c3ccc4c(c3)NC(=O)CS4)CC2)c1C returned Beta2AR agonist 8, Ecoli growth 0.69, UCH37 inh 2.8, ALR H2O2 inh 0, HNF4A DNA FP 0.0, FGF22 binding inactive and LANA-H2B inh 0.2.
Cc1cc(C)c2c(n1)SCC(=O)N2CC(=O)NCCC1=CCCCC1 was read as Beta2AR agonist -6, Ecoli growth 0.75, UCH37 inh 2.9, ALR H2O2 inh -43, HNF4A DNA FP 3.9, FGF22 binding inactive and LANA-H2B inh 1.3.
COc1ccc(NC(=S)NC(=O)C2CCC2)cc1 was read as Beta2AR agonist -6, Ecoli growth 0.67, UCH37 inh 3.8, ALR H2O2 inh -7, HNF4A DNA FP 1.7, FGF22 binding inactive and LANA-H2B inh -4.5.
`Cc1cccc(NC(=O)CSc2nnc(CCCCCNC(=O)OC(C)(C)C)o2)c1C` gave Beta2AR agonist -8, Ecoli growth 0.72, UCH37 inh 4.1, ALR H2O2 inh -8, HNF4A DNA FP 1.2 and LANA-H2B inh 0.8.
O=C(Oc1ccc2[nH]cc(CCN3C(=O)c4ccccc4C3=O)c2c1)c1ccco1 was read as Beta2AR agonist 5, Ecoli growth 0.71, UCH37 inh 4.2, ALR H2O2 inh -1, HNF4A DNA FP -3.5, FGF22 binding inactive and LANA-H2B inh 2.8.
For O=C(CSc1ccc(-c2ccco2)nn1)N1CCCC1 the results were Beta2AR agonist 0, Ecoli growth 0.7, UCH37 inh 5.4, ALR H2O2 inh -11, HNF4A DNA FP -3.8, FGF22 binding inactive and LANA-H2B inh 0.0.
Screening COC(=O)c1ccccc1NC=C1C(=O)OC2(CCCCC2)OC1=O returned Beta2AR agonist 18, Ecoli growth 0.73, UCH37 inh 4.0, ALR H2O2 inh -4, HNF4A DNA FP 0.3 and LANA-H2B inh -1.2.
`COc1ccc2nc(C)cc(SCC(=O)N/N=C/c3ccc(O)cc3O)c2c1` gave Beta2AR agonist 6, ALR H2O2 inh -11, HNF4A DNA FP -0.1 and LANA-H2B inh 0.1.
`CC(=O)N1c2ccc(S(=O)(=O)N3CCCC(C(=O)NCc4ccccc4Cl)C3)cc2CC1C` (centres undefined) gave Beta2AR agonist 3, Ecoli growth 0.63, UCH37 inh -0.3, ALR H2O2 inh -5, HNF4A DNA FP 2.8, FGF22 binding inactive and LANA-H2B inh -1.2.
For O=C(Nc1nc(-c2nc3ccccc3s2)cs1)c1ccc(S(=O)(=O)N2CCOCC2)cc1 the results were Beta2AR agonist 34, Ecoli growth 0.77, UCH37 inh -77, ALR H2O2 inh -5, HNF4A DNA FP -1.2 and LANA-H2B inh 3.9.
Screening CCn1c(COc2cccc(OC)c2)nnc1SCC(=O)N1CCOCC1 returned Beta2AR agonist 3, Ecoli growth 0.72, UCH37 inh -1.2, ALR H2O2 inh 1, HNF4A DNA FP 3.2 and LANA-H2B inh 5.4.
`O=C(CSc1nnc(CNC(=O)c2ccccc2F)o1)c1ccc(Cl)cc1` gave Beta2AR agonist 6, Ecoli growth 0.68, UCH37 inh 2.3, ALR H2O2 inh 99*, HNF4A DNA FP 2.3 and LANA-H2B inh -1.8.
Screening CSCCC1NC(=O)N(CC(=O)Nc2ccc(N3CCCCC3)cc2)C1=O (centres undefined) returned Beta2AR agonist -1, Ecoli growth 0.73, UCH37 inh 4.8, ALR H2O2 inh 72, HNF4A DNA FP -4.4 and LANA-H2B inh 2.0.
Screening Cn1c(SCC(=O)c2cc3ccccc3o2)nnc1-c1ccccc1 returned Beta2AR agonist 1, Ecoli growth 0.73, UCH37 inh 5.0, ALR H2O2 inh 97*, HNF4A DNA FP 1.1, FGF22 binding inactive and LANA-H2B inh -2.9.
For COC(=O)CN1C(=O)COc2ccc(S(=O)(=O)NCc3ccc(Cl)cc3)cc21 the results were Beta2AR agonist 13, Ecoli growth 0.6, UCH37 inh 1.1, ALR H2O2 inh -3, HNF4A DNA FP -1.1, FGF22 binding inactive and LANA-H2B inh -1.5.

By substructure: the compounds so far containing fluorine (2)
COc1ccc(OC)c(CNC(=O)CCSCc2ccc(F)cc2Cl)c1 was read as Beta2AR agonist 3, Ecoli growth 0.64, UCH37 inh 4.1, ALR H2O2 inh -4, HNF4A DNA FP 0.3, FGF22 binding inactive and LANA-H2B inh -4.8.
`O=C(CSc1nnc(CNC(=O)c2ccccc2F)o1)c1ccc(Cl)cc1` gave Beta2AR agonist 6, Ecoli growth 0.68, UCH37 inh 2.3, ALR H2O2 inh 99*, HNF4A DNA FP 2.3 and LANA-H2B inh -1.8.
